# Screening results deposited in PubChem by several laboratories.
# WNV NS2B-NS3 inh: inhibitors of WNV NS2B-NS3 protease, primary screen, biochemical, fluorogenic substrate | Genome polyprotein (West Nile virus), P06935 | fluorogenic substrate Ex360/Em465; active compounds read low | z-score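 (tested at a level between 10 and 100 µM)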 | hit rate 0.18% among 65,000;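 active = z-score at -3 or under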;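 note: score is relative to mean and spread of the compound wells of a plate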
# Target sequence (P06935 1371-1501 limits assumed): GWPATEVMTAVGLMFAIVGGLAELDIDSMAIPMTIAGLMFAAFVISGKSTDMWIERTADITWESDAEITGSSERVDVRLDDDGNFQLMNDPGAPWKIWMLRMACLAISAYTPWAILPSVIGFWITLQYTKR
# Target sequence (P06935 1502-1679 limits assumed): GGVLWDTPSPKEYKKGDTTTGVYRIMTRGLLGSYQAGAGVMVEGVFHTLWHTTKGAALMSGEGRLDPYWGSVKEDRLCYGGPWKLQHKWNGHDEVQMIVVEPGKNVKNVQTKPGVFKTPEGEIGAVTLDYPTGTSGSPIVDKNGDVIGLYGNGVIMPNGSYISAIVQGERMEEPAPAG
# MT1-MMP reporter: inhibitors of MT1-MMP promoter transcription, cell-based, luciferase reporter, luminescence (AID 618). MT1-MMP promoter luciferase reporter cells, luminescence. calls from a first round at 10 µM; hits with a dose series show EC50 in µM. hit rate 0.62% among 87,000;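 active = over half of the reporter light lost at 10 µM or EC50 under 50 µM; inactive = the rest and hits that failed the dose series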;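 note: actives suppress MT1-MMP promoter-driven transcription so potencies describe inhibitors; HT1080 fibrosarcoma cells; overnight exposure; toxic or luciferase-blocking compounds were not removed from the actives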
# Hsc70 ATP site: Hsc70 inhibitors, probe displacement, primary screen, biochemical, fluorescence polarization (AID 568); Heat shock cognate 71 kDa protein (Homo sapiens); Hsc70 fluorescence polarization, probe displacement; higher % means a stronger effect; strong numbers were not always called active; displacement, % at 20 µM; hits with a dose series show IC50 in µM; 83,000 tested, under 10 active;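 active = displacement above 50% without optical interference and an IC50 on retest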;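 note: ATPase domain with a fluorescein-tagged ATP probe; 0% = vehicle and 100% = excess ADP; read after one hour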
# An asterisk follows results filed as active; i = inactive; x = not tested or not shown; + = active, no number. Random draw from the library. Share with any hit: about 0.8%.
# Every second line gives: WNV NS2B-NS3 inh | MT1-MMP reporter | Hsc70 ATP site
COc1ccc(NC(=O)CSc2nnc(-c3ccccc3)n2Cc2ccco2)c(OC)c1
 : 1.16 | i | -1.0%
COc1ccc(NC(=O)CN2C(=O)C(C)Oc3ccccc32)cc1 (stereo not given)
 : -0.45 | i | -9.2%
Cc1cc(C)c(C#N)c(SCCS(=O)(=O)c2ccc(C(C)(C)C)cc2)n1
 : x | i | -2.3%
N#CCCN(CCC#N)c1nncs1
 : -1.48 | i | -2.0%
Oc1ccc(Br)cc1-c1cc(-c2ccc(Cl)cc2)n[nH]1
 : x | i | 1.6%
CCC(=O)Nc1ccc(N2CCCCC2)c(C(=O)Nc2ccccc2C)c1
 : x | i | 2.5%
O=C(O)c1ccc2c(c1)C(=O)N(C(Cc1ccccc1)C(=O)O)C2=O (stereo not given)
 : 1.76 | i | 7.8%
CS(=O)(=O)N1N=C(c2ccc(Br)cc2)CC1c1cccs1 (stereo not given)
 : x | i | 2.6%
Cn1cc(C(=O)c2ccccc2)cc1-c1nc2ccccc2n1C
 : 1.55 | i | 3.9%
CCC(C)(C)n1nnnc1CN1CCC(NC(=O)c2ccc(Br)cc2)CC1
 : x | i | -3.5%
C=CCNC(=O)C12CC3CC(C1)CC(C(=O)NCC=C)(C3)C2
 : 2.51 | i | -0.8%
CCc1ccc(C2CC(c3cccc(OC)c3)n3nc(N)nc3N2)cc1 (stereo not given)
 : -0.89 | i | 2.0%
CCOC(=O)C1CCN(S(=O)(=O)c2cccc(-c3cn4ccccc4n3)c2)CC1
 : 0.32 | i | -2.1%
O=c1[nH]nc(CNc2ccc(O)cc2)c2ccccc12
 : x | i | 3.5%
O=C(Nc1ccc(F)cc1)N(Cc1ccco1)Cc1cc2cc3c(cc2[nH]c1=O)OCO3
 : 0.81 | i | 3.1%
Cc1cccc(NC(=O)CSCc2c(C)noc2C)c1C
 : -1.01 | i | -5.0%
CN(c1ccc(C(=O)O)cc1)S(=O)(=O)c1ccccc1
 : -0.32 | i | 7.8%
CC(=O)Oc1ccc2c(C)c(CC(C)O)c(=O)oc2c1 (stereo not given)
 : 5.37 | i | -15.0%
O=C(CN1C(=O)C2CC=CCC2C1=O)Nc1ccc(S(=O)(=O)NC2=NCCCCC2)cc1 (stereo not given)
 : -1.14 | i | -1.7%
CCCCN1Cc2cc(C(=O)c3cc(OC)ccc3O)cnc2NC1=O
 : x | i | -1.5%
COc1ccc(C2C(C(=O)Nc3ccccc3OC)=C(C)Nc3ncnn32)cc1 (stereo not given)
 : 1.06 | i | 1.9%
O=c1[nH]n(-c2ccccc2)c(=O)c2ccccc12
 : -1.48 | i | 2.0%
CCc1ccccc1NC(=O)CN(c1cccc(OC)c1)S(C)(=O)=O
 : 0.49 | i | -1.9%
C=CCn1c(Cc2c(C)[nH]c3ccccc23)nnc1SCC(=O)NCc1ccc(F)cc1
 : x | i | -6.3%
CC(C)Nc1ncnc2c1cnn2-c1ccc(Cl)cc1
 : 1.21 | 3.85µM* | -0.3%
COc1ccc(OC)c(CN2CCN(c3ccccc3OC)CC2)c1
 : -0.67 | i | -0.2%
CCOC(=O)c1cc2occc2n1CC(=O)NCCOC
 : x | i | 1.3%
Cc1cccc2cc(CN(Cc3ccc(F)cc3)C(=O)N(C)C)c3nnnn3c12
 : -0.5 | i | 1.6%
Nc1ccc2oc3ccc(N)cc3c(=O)c2c1
 : x | i | 5.5%
C/C(=C\C(=O)Nc1cc(C)on1)c1ccccc1
 : -0.24 | i | 5.0%

# Entries of single compounds, quoted from the list. Screens in order: WNV NS2B-NS3 inh | MT1-MMP reporter | Hsc70 ATP site
# COc1ccc(NC(=O)CN2C(=O)C(C)Oc3ccccc32)cc1 (stereo not given) is entered as -0.45 | i | -9.2%
# CC(C)Nc1ncnc2c1cnn2-c1ccc(Cl)cc1 is entered as 1.21 | 3.85µM* | -0.3%
# CCC(C)(C)n1nnnc1CN1CCC(NC(=O)c2ccc(Br)cc2)CC1 is entered as x | i | -3.5%
# COc1ccc(C2C(C(=O)Nc3ccccc3OC)=C(C)Nc3ncnn32)cc1 (stereo not given) is entered as 1.06 | i | 1.9%
# CCOC(=O)c1cc2occc2n1CC(=O)NCCOC is entered as x | i | 1.3%

# More records:
# Every second line gives: WNV NS2B-NS3 inh | MT1-MMP reporter | Hsc70 ATP site
CCOC(=O)N1CCN(C(=O)c2ccccc2CCc2ccccc2)CC1
 : 1.02 | i | -8.7%
O=C1CC(c2ccccc2)=Nc2ccccc2N1
 : x | i | 5.7%
COc1ccc(C)cc1-n1nnnc1SC/C(O)=C(\C#N)c1nc2ccccc2[nH]1
 : -1.04 | i | -14.4%
CCOc1ccccc1-n1nnnc1SCC(=O)NC(=O)Nc1ccc2c(c1)OCCO2
 : x | i | 2.5%
Fc1ccccc1CSc1nc2ncccc2[nH]1
 : -0.92 | i | -1.2%
Cc1cc(C)cc(N(C(C)C(=O)NCCC2=CCCCC2)S(C)(=O)=O)c1 (stereo not given)
 : x | i | 0.3%
Cc1ccc(CCN2CC(C(=O)O)CC2=O)cc1 (stereo not given)
 : x | i | 3.5%
Clc1ccc(Cn2ncc3c(N4CCOCC4)ncnc32)cc1
 : -0.6 | i | -4.1%
COc1cc(C(=O)N2CCC(NC(=O)C(Cc3ccccc3C)NC(C)=O)CC2)cc(OC)c1OC (stereo not given)
 : -0.23 | i | 1.3%
COc1ccc(CNC(=O)CSc2nnc(C)s2)cc1
 : -0.26 | i | -2.2%
CCOC(=O)CNC(=O)CSc1nc2cccnc2n1C1CCCCC1
 : -1.1 | i | 0.8%
NC(=O)Cn1cnc(-c2ccccc2)c1
 : 0.84 | i | 1.7%
CC(Sc1nnnn1-c1ccccc1)C(=O)Nc1ccc(Cl)cn1 (stereo not given)
 : -0.37 | i | -1.1%
Cc1cccc(N2CCN(C(=O)CCCOc3ccccc3)CC2)c1C
 : 0.97 | i | -9.1%
CC(=O)c1cc(C)ccc1OC(=O)c1ccco1
 : 0.89 | i | 2.8%
COc1ccc(/C=C/c2nc3sc4c(c3c(=O)o2)CCC4)cc1
 : x | i | -205.1%
COCCn1c(=O)[nH]c2cc(C(=O)NC3CCCCCC3)ccc2c1=O
 : -0.08 | i | 4.8%
O=C(CSc1nnc(COc2ccc(Cl)cc2)o1)N1c2ccccc2CCc2ccccc21
 : x | + | -4.7%
C=CCSC1=N/C(=C\c2ccsc2)C(=O)S1
 : 1.81 | i | 112.0%
Cc1ccc(-c2nc(=S)c3c(n2Cc2ccco2)CCCC3)cc1
 : -1.58 | i | -0.6%
CCN1C(=O)c2cccc3c(S(=O)(=O)Nc4ccncc4)ccc1c23
 : x | i | 5.5%
NC1=NC2(CCCCC2)n2c(nc3ccccc32)N1
 : -0.16 | i | 0.1%
COc1ccccc1NC(=O)c1oc2ccccc2c1NC(=O)c1ccco1
 : 0.82 | i | -1.0%
COc1cc(C(=O)NCCC(=O)NCCN2CCCCCC2)cc(OC)c1OC
 : -1.37 | i | -2.1%
COc1ccc(C(C(O)C(=O)c2c[nH]c3ccccc23)N2CCN(c3ccc(OC)cc3)CC2)cc1 (stereo not given)
 : -0.66 | i | -3.1%
COc1ccc(S(=O)(=O)N2CCN(C(=O)c3cccs3)CC2)cc1
 : 0.28 | i | 4.1%
CCOC(=O)CSC1=C(C#N)C(c2ccc(F)cc2)C(C(C)=O)=C(C)N1 (stereo not given)
 : -1.2 | i | -4.7%
Cc1cc(C)n(C(=O)Cc2cn3ccsc3n2)n1
 : 0.4 | i | 23.5%
CSc1nnc(-c2cc3ccccc3cc2O)n1C
 : -0.66 | i | -2.3%
Nn1c(CSc2nc3ccccc3o2)nnc1CSc1nc2ccccc2o1
 : -0.27 | i | -1.6%
COc1ccc2nc(NC(=O)C(NS(=O)(=O)c3cccs3)C(C)C)sc2c1 (stereo not given)
 : 0.46 | i | 1.3%
COc1cccc(-c2csc(NC(C)=O)n2)c1
 : -0.1 | i | 0.8%
O=S(=O)(c1cccc(-c2nnc(SCc3ccc(Cl)cc3)o2)c1)N1CCCCC1
 : -1.31 | i | -4.2%
CCS(=O)(=O)N1CCN(C(=O)c2cccs2)CC1
 : -1.08 | i | 4.2%
O=C(NCCCN1CCN(C2CCCCC2)CC1)Nc1ccccc1C(F)(F)F
 : 2.07 | i | 3.6%
CN(C)S(=O)(=O)N1CCC(C(=O)O)(c2ccccc2)CC1
 : -1.23 | i | 5.6%
CCCCC1CCC(c2nc(-c3ccccn3)no2)CC1 (stereo not given)
 : 0.55 | i | 4.5%
CCC1(C(=O)OC)NC(c2ccco2)C2C(=O)N(c3ccc(C)cc3)C(=O)C21 (stereo not given)
 : 0.83 | i | -1.0%
CCN(CC)CCNC(=O)c1c(O)c2c([nH]c1=O)CCCC2
 : -1.95 | i | -4.3%
Cc1nn(Cc2ccccc2Cl)c2sc(C(=O)NCCCn3ccnc3)cc12
 : 2.4 | i | -7.2%
CCOC(=O)CC(=O)Nc1cc(Cl)ccc1O
 : -0.59 | i | 0.8%
O=C(Nc1ccc(F)cc1)NC1(C(=O)NCc2ccco2)CCCCC1
 : -0.32 | i | 6.6%
COCc1[nH]nc2c1C1(CCC3(CC1)OCCO3)C(C#N)=C(N)O2
 : -0.77 | i | -3.7%
Cc1c(N=CN2CCOCC2)c(=O)n(C)c(=O)n1C
 : -0.62 | i | 2.0%
CCOC(=O)c1c(N)sc(C(=O)N2CCCC(C(N)=O)C2)c1C (stereo not given)
 : -0.57 | i | -5.5%
CCn1c(SCC(=O)O)nnc1-c1cc2c(C)nn(-c3ccccc3)c2s1
 : -1.23 | i | 0.5%
O=C(C1=C(O)C(=O)N(CCN2CCOCC2)C1c1cccnc1)c1cc2ccccc2o1 (stereo not given)
 : -0.18 | i | 7.7%
COc1cc(OC)cc(-n2nnnc2SCC(=O)N2CCCC2)c1
 : -0.22 | i | 6.7%
Cc1cccc(N2CCN(C(=O)c3cn(C)c(=O)c4c3c3ccccc3n4C)CC2)c1C
 : -0.73 | i | -2.6%
CCOC(=O)c1oc2nc3c(cc2c1N)COC(C)(C)C3
 : -0.18 | i | 5.0%
Cn1cnnc1SCC(=O)Nc1ccc2nc(SCc3cccc4ccccc34)sc2c1
 : x | i | 2.2%
CC(NC(=O)CSc1nc2ccccc2c(=O)[nH]1)c1ccccc1 (stereo not given)
 : -1.05 | i | 3.9%
COC(=O)c1cc(NC2c3ccccc3C(=O)N2CCN2CCOCC2)cc(C(=O)OC)c1 (stereo not given)
 : -0.33 | i | -5.1%
CCCC(C)NS(=O)(=O)c1ccccc1 (stereo not given)
 : -0.16 | i | -1.0%
C/C(=N/n1cnnc1)c1cccnc1
 : 1.8 | i | 6.9%
CC(=O)C1=C(C)NC(SCC(N)=O)=C(C#N)C1c1cccnc1 (stereo not given)
 : -1.13 | i | -5.9%
COc1ccc(CC(=O)Nc2c3c(nn2-c2ccccc2C)CS(=O)C3)cc1 (stereo not given)
 : -0.25 | i | -1.2%
COc1cccc(NC(=O)CN2CCN(c3ccccc3F)CC2)c1
 : 0.65 | i | -1.6%
CCCSc1nc(SCC(=O)NCc2ccccc2)c2c3c(sc2n1)COC(C)(CC)C3 (stereo not given)
 : x | i | 0.7%
O=C(CSc1nnnn1C1CCCC1)Nc1ccc2c(c1)OCO2
 : -0.18 | i | -2.8%

# Carrying on:
# Every second line gives: WNV NS2B-NS3 inh | MT1-MMP reporter | Hsc70 ATP site
CS(=O)(=O)N1CCc2cc(S(=O)(=O)Nc3ccc4oc5c(c4c3)CCCC5)ccc21
 : -1.04 | i | -3.2%
O=C(Nc1ccccc1)c1nnn(Cc2ccccc2)c1NC(=O)C(F)(F)F
 : x | i | 3.0%
Cc1cc(Br)ccc1SCC(=O)OCC(=O)N1CCN(C(=O)c2ccco2)CC1
 : 0.29 | i | -1.9%
COCCOC(=O)C1=C(N)Oc2c(oc(CO)cc2=O)C1c1ccccc1F (stereo not given)
 : x | i | -5.5%
COCCCN1C(=O)C(=O)/C(=C(/O)c2ccc(OC)cc2C)C1c1cccnc1 (stereo not given)
 : -1.51 | i | -7.5%
Cc1oc(/N=C/c2ccc(Cl)cc2)c(C#N)c1C
 : 1.69 | i | -3.3%
CN(CC(=O)NCCN1CCCCCC1)S(=O)(=O)c1cccc2nsnc12
 : 1.73 | i | 0.5%
COc1cccc(C(=O)Nc2ccc3nc(N4CCOCC4)cc(C)c3c2)c1
 : 0.14 | i | -0.3%
CCC(C)NCC(=O)Nc1ccc(-c2nc3cc(NC(=O)CNC(C)CC)ccc3o2)cc1 (stereo not given)
 : -0.61 | i | 2.2%
COc1ccc(-c2noc(CSc3ccccc3)n2)cc1OC
 : 1.38 | i | -1.6%
CC1CC(C)CN(Cc2nc3c(c(=O)n(C)c(=O)n3C)n2CCN2CCOCC2)C1 (stereo not given)
 : 2.38 | i | 1.5%
Cc1cc(C)c2c(c1)c(C)cc1nnc(SCC(=O)NCc3ccco3)n12
 : -1.11 | i | -1.1%
CCCCSC1=C(C#N)C(c2ccccc2C)C(C(=O)OCC)C(=O)N1 (stereo not given)
 : 0.22 | i | -7.2%
CCOC(=O)CNC(=O)CSc1nnc(-c2ccco2)n1Cc1ccco1
 : -0.28 | i | -1.3%
O=C(O)C1CSC(CCc2ccccc2)N1 (stereo not given)
 : 0.48 | i | 1.2%
COc1ccc(C(=O)N2CCN(c3cccc(Cl)c3)CC2)c(OC)c1
 : 0.6 | i | 4.0%
